Screening data (PubChem)
HCMV NEC inh: disrupts HCMV UL50-UL53 complex binding. inhibition, % (test concentration not listed). HTRF UL50-UL53 interaction, normalized percent inhibition. 190,000 tested, 0.15% active. AID 1918969;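 active = both replicates at 50% or more, plus weaker picks with an unusually low signal ratio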;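 note: stock transfer was 100 nL into about 20 µL; 0% = negative control wells and 100% = wells with untagged competitor protein; inactives centre near -12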
GIV-Gai inh: inhibitors of GIV GBA-motif binding to rat Galpha-i3. P08753. Galpha-i3/FITC-GIV peptide fluorescence polarization, 90 min; stronger effect = lower value; scaled: aluminum fluoride 0%, vehicle 100%. percent of control (FP), % (no concentration beside the values). 210,000 tested, 0.42% active;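 active = replicate mean at 85% of control or lower, very high polarization wells dropped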;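 note: wells of about 15 µL received 100 nL stock; the first replicate is given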
Target sequence (P08753 whole entry, looked up): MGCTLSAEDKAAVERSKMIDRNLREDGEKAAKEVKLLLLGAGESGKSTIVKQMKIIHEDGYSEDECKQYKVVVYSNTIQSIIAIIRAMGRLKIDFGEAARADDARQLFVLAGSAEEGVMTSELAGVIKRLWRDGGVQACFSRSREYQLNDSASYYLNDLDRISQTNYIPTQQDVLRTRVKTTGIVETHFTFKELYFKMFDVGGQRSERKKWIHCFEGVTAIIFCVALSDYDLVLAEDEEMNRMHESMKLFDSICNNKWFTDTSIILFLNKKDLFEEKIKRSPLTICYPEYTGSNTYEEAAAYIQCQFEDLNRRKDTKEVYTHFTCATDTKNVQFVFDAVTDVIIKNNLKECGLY
Sa growth inh: S. aureus growth inhibition; relative growth, % (test concentration not listed); 170,000 tested, 0.53% active; S. aureus RN4220 growth, OD600, 20 h, 42 °C; stronger effect = lower value;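 active = growth at 42 °C up to 50% and 20 or more points under that at 30 °C, or under 10% at both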;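 note: 300 nL library stock went into each well; scaled to the means of positive and negative controls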
Sa growth inh second temp: recorded beside Sa growth inh, whose call it bears; relative growth, %; measured here: growth at 30 °C;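 optical density after 20 h as mean of two plates; 100% = untreated growth and lower means inhibition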
* hit, by the source's call; x = no result given; & = joins results of further samples. Rows are unselected. Share with any hit: about 0.85%.

No.	canonical_smiles	HCMV NEC inh	GIV-Gai inh
1	CCCN1C(=O)C(NC(=O)c2ccco2)(C(F)(F)F)N=C1c1ccccc1 (stereo not drawn)	-28	102
2	O=C(Oc1ccc(Cl)cc1)c1c(-c2ccccc2)nnc2ccccc12	-13	103
3	COc1ccccc1NC(=O)CCN1CCCCC1	-36	108
4	CC(=O)Oc1ccc2c(=O)c(-c3ccccc3)c(C(F)(F)F)oc2c1	x	101
5	O=C(Nc1cccc(N2C(=O)C=CC2=O)c1)c1cccs1	1	112
6	CCOC(=O)c1c(C)c(C#N)c(-n2cccc2)n1-c1ccc(C)cc1	-8	106
7	O=C(Nc1ccccc1)c1ccccc1O	-11&0	x
8	Cc1c2cnn(-c3ccccc3)c(=O)c2c(C)n1C(C)C(=O)Nc1nccs1 (stereo not drawn)	2	111
9	CC(=O)Nc1ccc2c(c1)COCO2	4	105
10	Brc1ccc2nc(SCc3nc4ccccc4[nH]3)[nH]c2c1	-13	101
11	CN(C)/C=C/C(=O)c1sc(SCc2ccc(Cl)cc2)c2c1CC(C)(C)CC2=O	2	110
12	CC(C)(C)OC(=O)N1CCC(c2c(C(=O)NCCN3CCOCC3)cnn2-c2ccccc2)CC1	x	108
13	CSc1nc(-c2ccccc2)cc(-c2cccs2)c1C#N	x	104
14	CCOC(=O)c1nc(NCC(OCC)OCC)c2c3c(sc2n1)CCCC3	-22	102
15	CC(C)N(C(=O)CN1CCN(Cc2ccccc2)CC1)C(C)C	2	103

No.	Sa growth inh	Sa growth inh second temp
1	91	83
2	70	43
3	102	86
4	76	89
5	104	50
6	74	73
7	98	80
8	92	95
9	101	60
10	x	x
11	91	94
12	93	84
13	119	99
14	x	x
15	109	87

Next section.
No.	canonical_smiles	HCMV NEC inh	GIV-Gai inh
16	Cc1ccc(NC(=O)CCn2cnc3cc(S(=O)(=O)N4CCCC4)ccc32)nc1	-32	106
17	CCCCNC(=O)C(CC)Sc1nc2ccccc2c(=O)n1Cc1ccco1 (stereo not drawn)	x	98
18	CN(CC(=O)NCc1ccccc1Cl)S(=O)(=O)c1ccc2c(c1)c(=O)n(C)c(=O)n2C	0	99
19	O=C(Nc1ccc2[nH]c(=O)[nH]c2c1)c1ccccc1Br	-10	115
20	Cc1ccc(NC(=O)Cn2c(=O)n(CCC(=O)NCCc3ccccc3)c(=O)c3ccccc32)cc1	-8	105
21	COc1cccc(-c2nc3ccccc3c(=O)n2NC(=O)c2cc(-c3ccncc3)nc3ccccc23)c1	-10	105
22	N#Cc1ccccc1Cn1c(=O)n(CCCCC(=O)NCc2ccc3c(c2)OCO3)c(=O)c2ccccc21	2	108
23	COc1ccc(C2CC(=O)N(c3ccc(Cl)cc3)C(=O)C2)cc1	-18	98
24	Cc1ccc2c(c1)C(=O)OC(C(=O)Nc1ncc(Cc3ccccc3)s1)C2 (stereo not drawn)	-62	108
25	O=C(Cc1ccccc1)Nc1c(C(=O)Nc2ccccc2F)oc2ccccc12	-9	106
26	CC(=O)NCCn1c(SCC(=O)NCC2CCCO2)nc2ccccc2c1=O (stereo not drawn)	0	99
27	CCOc1ccc(NC(=O)Cn2c(=O)n(CCCCCC(=O)NCc3ccccc3)c(=O)c3sccc32)cc1	11	102
28	CC1CCc2c(sc(NC(=O)c3cc(-c4ccc(Br)cc4)on3)c2C(N)=O)C1 (stereo not drawn)	17	103
29	COc1cc2[nH]c3c(=O)n(CCC(=O)NCCc4c[nH]c5ccccc45)cnc3c2cc1OC	-4	119
30	CCc1ccc2c(CCl)cc(=O)oc2c1	13	x

No.	Sa growth inh	Sa growth inh second temp
16	x	x
17	95	88
18	101	103
19	110	100
20	89	89
21	x	x
22	93	96
23	x	x
24	98	81
25	105	84
26	83	86
27	96	91
28	90	98
29	x	x
30	84	96

The listing continues:
No.	canonical_smiles	HCMV NEC inh	GIV-Gai inh
31	COc1ccccc1NC(=O)C(C)n1nc(C(=O)O)c2ccccc2c1=O (stereo not drawn)	-26	x
32	CC[C@H](C)NC(=O)CCc1nc2sc3c(c2c(=O)[nH]1)CCCCC3	-18	101
33	Cc1cccn2c(=O)c3cc(C#N)c(=O)n(-c4nnc(SCc5ccc(F)cc5)s4)c3nc12	-24	105
34	Cc1ccc(-c2cnc(C3CC3)o2)cc1S(=O)(=O)Nc1ccc(F)cc1Cl	x	106
35	C=CCn1c(C)cc(C(=O)CSc2nnc3ccccn23)c1C	-20	x
36	Cc1cc(C)nc(NS(=O)(=O)c2ccc(NC(=S)NC(=O)/C=C/c3ccco3)cc2)n1	-29	106
37	CCCOC(=O)c1c(-c2ccccc2)nc(CC)c(C(=O)SCC)c1CCC	-14	99
38	CC(C)(C)NS(=O)(=O)c1ccc(N2C(=O)CCC2=O)cc1	-14	103
39	CCCC(=O)N(c1ccc2oc(C)c(C(C)=O)c2c1)S(=O)(=O)c1ccc(CC)cc1	x	105
40	CCOC(=O)c1cc2c(=O)n3ccccc3nc2n(CC(C)C)c1=NC(=O)C(C)(C)Oc1ccc(Cl)cc1	-4	103
41	CCOc1ccc(C(=O)N(CC2COc3ccccc3C2)C(C)C)cc1OCC (stereo not drawn)	-29	103
42	Cc1nc(CNC(=O)c2ccc(-c3noc(C4CC4)n3)cc2)no1	0	100
43	Cc1onc(-c2ccccc2)c1CNC(=O)CCC(=O)O	-3	101
44	CC(C)Nc1ncnc2ccsc12	-12	102
45	COc1ccc2c(c1)c1c(n2C(C)=O)C(OC(C)=O)=NCC1	-14	98

No.	Sa growth inh	Sa growth inh second temp
31	93	89
32	x	x
33	94	68
34	118	102
35	120	80
36	93	39
37	x	x
38	106	103
39	114	96
40	99	94
41	x	x
42	x	x
43	99	90
44	87	86
45	84	85

Pulled one by one from above (five):
No.	canonical_smiles	HCMV NEC inh	GIV-Gai inh
39	CCCC(=O)N(c1ccc2oc(C)c(C(C)=O)c2c1)S(=O)(=O)c1ccc(CC)cc1	x	105
35	C=CCn1c(C)cc(C(=O)CSc2nnc3ccccn23)c1C	-20	x
33	Cc1cccn2c(=O)c3cc(C#N)c(=O)n(-c4nnc(SCc5ccc(F)cc5)s4)c3nc12	-24	105
42	Cc1nc(CNC(=O)c2ccc(-c3noc(C4CC4)n3)cc2)no1	0	100
45	COc1ccc2c(c1)c1c(n2C(C)=O)C(OC(C)=O)=NCC1	-14	98

No.	Sa growth inh	Sa growth inh second temp
39	114	96
35	120	80
33	94	68
42	x	x
45	84	85

Exported in markdown: entries from further up
| item | Compound | HCMV NEC inh | GIV-Gai inh | Sa growth inh | Sa growth inh second temp |
| --- | --- | --- | --- | --- | --- |
| 38 | CC(C)(C)NS(=O)(=O)c1ccc(N2C(=O)CCC2=O)cc1 | -14 | 103 | 106 | 103 |
| 37 | CCCOC(=O)c1c(-c2ccccc2)nc(CC)c(C(=O)SCC)c1CCC | -14 | 99 | x | x |

Next part
No.	canonical_smiles	HCMV NEC inh	GIV-Gai inh
46	CN(C1CCCCC1)S(=O)(=O)c1ccc(-c2cc(C(F)(F)F)no2)s1	-18	101
47	CCc1ccc(N2CC(c3nc4ccccc4[nH]3)CC2=O)cc1 (stereo not drawn)	7	112
48	OCCn1ncc2c(SC3CCCCC3)ncnc21	-14	108
49	COc1ccccc1NC(=O)C1CC1(c1ccc(C)cc1)c1ccc(C)cc1 (stereo not drawn)	-10	x
50	CCCNC(=O)c1ccc(N2CC3CC(C2)c2cccc(=O)n2C3)c(NC(=O)Nc2ccc(Cl)cc2)c1 (stereo not drawn)	-19	101
51	CCOC(=O)CSc1nc2c(sc3ccccc32)c(=O)n1CCCN1CCOCC1	4	97
52	O=C(OCc1cn2ccccc2n1)c1ccc2c(c1)C(=O)N(Cc1ccco1)C2=O	-66	x
53	NCc1oc(-c2ccccc2)cc1C(=O)O	5	114
54	Cc1cc(C)n2nc(C(=O)O)nc2n1	14	109
55	O=C(O)c1cc(N=Cc2ccccc2O)ccc1O	-3	x
56	Cc1ccccc1OCCn1c(C2CCCO2)nc2ccccc21 (stereo not drawn)	-6&-12	102&103
57	COc1ccccc1N1CCN(C(=O)c2cc3c(s2)-c2ccccc2OC3)CC1	-6	107
58	NCC1CCCN(Cc2ccccc2)C1 (stereo not drawn)	-18	106
59	CCOc1cc(/C=C2/SC(=Nc3ccccc3)NC2=O)ccc1OCC(=O)O	-67	107
60	C[C@H](NC(N)=O)C(=O)NC1CCCc2ccccc21 (stereo partly drawn)	-10	x

No.	Sa growth inh	Sa growth inh second temp
46	83	95
47	103	94
48	107	101
49	91	97
50	34	23
51	95	84
52	102	88
53	84	103
54	85	91
55	80	84
56	88	53
57	95	109
58	93	96
59	x	x
60	73	86

Other entries:
No.	canonical_smiles	HCMV NEC inh	GIV-Gai inh
61	COc1ccc(CCNC(=O)CSc2cn(CCNC(=O)c3cccc(C(F)(F)F)c3)c3ccccc23)cc1OC	-21	100
62	NS(=O)(=O)c1ccc(CCNC2=CC(=O)OC23CCCCC3)cc1	x	99
63	Cc1nn(-c2ccccc2)c2sc(C(=O)N=Nc3c(O)[nH]c4ccccc34)cc12	-10	x
64	CCc1ccccc1NC(=O)CCn1cccn1	x	104
65	CCOC(=O)N1CCN(S(=O)(=O)c2ccc(C(=O)Nc3ccc(-c4nc5ccccc5o4)cc3)cc2)CC1	-12	104
66	CCOC(=O)N1CCN=C1SCc1cc(C)ccc1C	8	106
67	CSc1nn(-c2ccccc2)cc1-c1noc(-c2ccc(C(F)(F)F)cc2)n1	-28	101
68	Cc1cc(-c2ccccc2)nc2cc(C(=O)N3CCCCCC3)nn12	-26	98
69	COC(=O)c1cc(C(=O)NCc2ccccc2)c(=O)[nH]c1C	45	107
70	CC(NC(=O)c1ccc2c(c1)OCCO2)C(=O)O (stereo not drawn)	-1	105
71	Cc1cc(-c2nc(COc3ccc(Cl)cc3Cl)no2)no1	6	103
72	CC(C)(C)C(=O)Nc1ccccc1C(=O)N1CCN(Cc2ccccc2)CC1	-1	x
73	O=C(c1ccc2c(c1)N(Cc1ccccc1)CCS2)N1CCOCC1	x	97
74	CC(C)c1ccc(OC(=O)CN2C(=O)c3ccccc3C2=O)cc1	-17	99
75	COc1ccc(C(CN=Cc2c(O)[nH]c(=S)[nH]c2=O)N(C)C)cc1 (stereo not drawn)	8	x

No.	Sa growth inh	Sa growth inh second temp
61	106	82
62	78	85
63	89	82
64	100	98
65	x	x
66	90	89
67	90	88
68	94	58
69	x	x
70	x	x
71	95	102
72	89	119
73	112	84
74	106	86
75	99	104

Additional compounds follow:
No.	canonical_smiles	HCMV NEC inh	GIV-Gai inh
76	Cc1ccc(-c2nc(S(=O)(=O)c3ccc(C)cc3)c(N3CCCCCC3)o2)cc1	6	98
77	CCOC(=O)N1CCc2c(sc(NCc3sccc3C)c2C(=O)Nc2ccccc2OCC)C1	x	108
78	Cc1cc(NC(C)C)n2nc(-c3ccccc3)nc2n1	-4	104
79	CCOC(=O)c1c(C)[nH]c(C)c1C(=O)CC#N	-17	x
80	Cn1c(=O)n(CC(=O)O)c(=O)c2c1nc1n2CCCN1c1ccc(F)cc1	-8	93
81	CC(C)CCNC(=O)C1CC(=O)N(CCC(C)C)C1 (stereo not drawn)	6	102
82	CN(Cc1ccccc1)S(=O)(=O)c1csc(C(N)=O)c1	-82	100
83	CC(C)OC(=O)c1cccc(C(=O)OC(C)C)n1	x	93
84	COc1ccc2[nH]cc(CCNC(=O)CCCn3c4ccccc4c4cnn(C)c(=O)c43)c2c1	6	108
85	Cn1c(=O)c2c(C(=O)N3CCOCC3)cc(=O)n(C)c2n(C)c1=O	-4	102
86	CCCN1CCC(NC(=O)Cc2ccc(C)cc2)CC1	6	109
87	Cc1cc(C)nc(N/N=C/C2=C(N3CCOCC3)C(=C\c3ccccc3)/CC2)n1	-11	x
88	Cc1ccc(-n2ncc3c(Nc4cccc(Cl)c4)ncnc32)c(C)c1	x	103
89	O=C(O)CCc1nnc2ccc(NCCCN3CCCC3=O)nn12	-7	108
90	COc1cc(C(=O)NC(C)(C)CCO)cc(OC)c1OC	-5	99

No.	Sa growth inh	Sa growth inh second temp
76	86	96
77	81	68
78	86	83
79	98	89
80	x	x
81	78	87
82	x	x
83	113	86
84	x	x
85	x	x
86	101	105
87	102	90
88	67	64
89	106	95
90	101	93

Next section:
No.	canonical_smiles	HCMV NEC inh	GIV-Gai inh
91	N#Cc1c(N)[nH]c(=S)c(C(N)=O)c1-c1cccc(Br)c1	-2	x
92	CNC(=O)N(Cc1cccnc1)Cc1ccccc1Cl	-3	x
93	O=C(NC1CC1)c1ccc(CN2C(=O)CCn3nc(-c4cccc(Cl)c4)cc32)cc1	-14	109
94	COCc1cc(C)nc(Cl)c1C#N	x	101
95	CN(C)CCCNC1CS(=O)(=O)CC1O (stereo not drawn)	10	104
96	Cc1cc(=O)n(C)c(=O)n1CCCCCN1CCCC1	-7	100
97	Cc1cccc(-n2c(SCCC#N)nnc2-c2ccc(Cl)cc2)c1	26	x
98	CCc1ccc(NC(=O)NCc2c(C)nn(CC)c2C)cc1	-17	103
99	Cc1ccnc(NC(=O)CN2C(=O)CCc3cc(S(=O)(=O)N4CCCCC4C)ccc32)c1 (stereo not drawn)	-11	107

No.	Sa growth inh	Sa growth inh second temp
91	0.3*	0.0*
92	90	90
93	x	x
94	116	79
95	107	115
96	82	90
97	65	96
98	x	x
99	x	x
